Bioassay records (PubChem)
NPR1 antag = Natriuretic polypeptide receptor (hNpr1) antagonism - Primary qHTS; 1.6% of 76,000 active; Potency, µM (highest dose often 46.3 µM), for inactives: at the top dose activity change, negative = inhibition, most hits filed as inhibitors; HEK293 hNpr1 GloSensor cGMP, ANP-stimulated luminescence; Atrial natriuretic peptide receptor 1 (Homo sapiens), P16066; active = well fitted inhibition curve with a large enough effect; inconclusive = small, poorly fitted or top-dose-only effect; inactive = no such curve, though single readings can be large or run the other way;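 further: nearly all actives have a fitted effect of over 60% in size; nearly all hits also lower the signal before the agonist is added; a reference antagonist and vehicle were the controls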
Target sequence (P16066 whole entry, looked up): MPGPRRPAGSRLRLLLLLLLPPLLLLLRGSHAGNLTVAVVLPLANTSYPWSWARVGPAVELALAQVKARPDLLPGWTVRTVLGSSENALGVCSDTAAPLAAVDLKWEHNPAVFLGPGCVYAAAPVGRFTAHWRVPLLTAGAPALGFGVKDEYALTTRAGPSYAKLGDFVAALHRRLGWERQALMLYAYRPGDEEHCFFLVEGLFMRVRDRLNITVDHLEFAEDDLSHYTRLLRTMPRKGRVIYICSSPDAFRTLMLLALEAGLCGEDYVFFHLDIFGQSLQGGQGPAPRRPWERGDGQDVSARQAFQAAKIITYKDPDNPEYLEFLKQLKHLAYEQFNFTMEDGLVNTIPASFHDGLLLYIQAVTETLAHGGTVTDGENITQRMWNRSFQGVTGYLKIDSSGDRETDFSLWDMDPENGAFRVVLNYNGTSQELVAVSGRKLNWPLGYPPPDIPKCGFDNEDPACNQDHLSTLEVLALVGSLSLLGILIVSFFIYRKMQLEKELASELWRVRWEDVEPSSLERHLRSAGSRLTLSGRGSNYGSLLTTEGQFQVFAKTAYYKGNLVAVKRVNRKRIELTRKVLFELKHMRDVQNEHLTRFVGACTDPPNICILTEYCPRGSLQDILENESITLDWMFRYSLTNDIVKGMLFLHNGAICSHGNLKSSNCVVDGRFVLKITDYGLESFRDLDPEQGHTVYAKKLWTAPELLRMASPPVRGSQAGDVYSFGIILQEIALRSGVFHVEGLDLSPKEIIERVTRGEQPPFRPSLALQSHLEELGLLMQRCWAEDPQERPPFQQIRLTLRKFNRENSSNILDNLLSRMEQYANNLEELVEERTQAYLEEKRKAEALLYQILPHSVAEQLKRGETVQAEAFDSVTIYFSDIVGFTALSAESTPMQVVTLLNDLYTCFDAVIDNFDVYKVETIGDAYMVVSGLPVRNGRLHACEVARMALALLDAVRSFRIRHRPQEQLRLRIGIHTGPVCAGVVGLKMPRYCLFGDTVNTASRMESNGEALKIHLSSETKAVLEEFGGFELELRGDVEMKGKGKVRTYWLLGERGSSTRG
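Compound pre-incubated 30 min at room temperature on GloSensor-loaded HEK293 cells stably carrying hNpr1 and the pGS-40F cGMP biosensor. Stimulation uses hNppA at 0.1 nM final; luminescence is taken at baseline and 20 min post-agonist.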
* marks the source's active call; other numbers are inactive results; ? = inconclusive; [ ] = dose if it differs, or a comment. On the % scale 0 is the no-effect control and ±100 the full control effect; potency means the concentration at half of the fitted maximal effect. An excerpt; the hit share may differ from the screen's.

Start of the listing, in advance:
NPR1 antag | mol
-2% | CN1CCC(N2CC[C@H](CO)[C@H](N(C)C)C2)CC1
-2% | O=C(Cc1ccc(N2CCC(NCCc3ccc(C(F)(F)F)cc3)CC2)cc1)NCc1ccccn1
2% | CS(=O)(=O)N1CCC(C2CCN(C(=O)c3ccc[nH]c3=O)C2)CC1 (stereo unspecified)
2.8µM* | COc1ccc(C(=O)N2CCC(Cc3nc(-c4ccc(F)cc4)no3)CC2)c(OC)n1

Main list (from the top)
NPR1 antag | mol
-2% | CN1CCC(N2CC[C@H](CO)[C@H](N(C)C)C2)CC1
-2% | O=C(Cc1ccc(N2CCC(NCCc3ccc(C(F)(F)F)cc3)CC2)cc1)NCc1ccccn1
2% | CS(=O)(=O)N1CCC(C2CCN(C(=O)c3ccc[nH]c3=O)C2)CC1 (stereo unspecified)
2.8µM* | COc1ccc(C(=O)N2CCC(Cc3nc(-c4ccc(F)cc4)no3)CC2)c(OC)n1
11% | CC(C)N1C[C@H](O)C[C@H]1c1nnc2n1CCN(C(=O)c1ccco1)CC2
-7% | COc1cc(NC(=O)[C@H]2CC[C@H]3CO[C@](C)(NC(=O)c4cnccn4)C(=O)N32)ccc1F
0% | COc1cccc(OCc2nc(C(=O)N3CCCC3c3nccs3)co2)c1 (stereo unspecified)
0% | CN1c2cc(C(N)=O)ccc2C(=O)N2CCCC21 (stereo unspecified)
-16% | Cc1cccc(C(=O)N2CCC3(CC2)CC(Cc2ccc(F)cc2)CCO3)c1 (stereo unspecified)
0% | CCCOc1ccc(CCNC(=O)C2NCCc3[nH]cnc32)cc1OC (stereo unspecified)
-1% | COc1ccc([C@@H](NC(=O)c2coc3ccccc23)C2CC(O)C2)cn1 (stereo partly specified)
-22% | COc1ccc(-c2noc(Nc3ccc4c(c3)OCO4)n2)cc1
1% | O=C(C[C@H]1NC(=O)c2ccccc2NC1=O)Nc1nnc(Cc2ccccc2)s1
3% | COc1ccccc1C(=O)N1CCC(n2cnnc2C2CC2)CC1
? | O=[S+]([O-])(Nc1ccccc1)c1ccc2c(c1)OCCN(CC1CC1)C2
-2% | COc1ccc(C(=O)N2CCCC3(CC(Cc4ccccc4)=NO3)C2)cc1 (stereo unspecified)
-1% | COc1ccc(CC(=O)N2CCc3nc(C(C)C)nc(-c4ccc(OC)cc4)c3CC2)cc1
-12% | CCN1c2cc(C(=O)NCc3nc4ccccc4n3C)ccc2C(=O)N2CCCCCC21 (stereo unspecified)
-28%[70.6 µM] | O=C1COc2ccc(OCc3cncs3)nc2CN1Cc1ccccc1
0% | CC(=O)c1cccc(N2C(=O)[C@@H]3[C@@H](CCN3C(=O)C(C)(C)C)N(Cc3cccc(F)c3)C2=O)c1
-19% | COc1ccc(C(=O)N2CCC3(CC2)CC(O)CCO3)cc1 (stereo unspecified)
1% | CC(C)N(C)Cc1nnnn1CC(=O)NCc1ccc2nonc2c1
6% | COCCOC1CCN(C(=O)c2ccc3oc(-c4cccc(F)c4)nc3c2)CC1
? | CN(CC(=O)N1CCC(CCOc2ccc(F)cc2)C1)S(=O)(=O)c1cccs1 (stereo unspecified)
-1% | CC(C)CNC(=O)C1CCN(C(=O)c2ncn3c2COC(c2ccc(F)cc2)C3)CC1 (stereo unspecified)

Part of the list above, tab-delimited.
SMILES	NPR1 antag
CCCOc1ccc(CCNC(=O)C2NCCc3[nH]cnc32)cc1OC (stereo unspecified)	0%
COc1ccc([C@@H](NC(=O)c2coc3ccccc23)C2CC(O)C2)cn1 (stereo partly specified)	-1%
COc1ccc(-c2noc(Nc3ccc4c(c3)OCO4)n2)cc1	-22%
O=C(C[C@H]1NC(=O)c2ccccc2NC1=O)Nc1nnc(Cc2ccccc2)s1	1%
COc1ccccc1C(=O)N1CCC(n2cnnc2C2CC2)CC1	3%

Later entries
NPR1 antag | mol
-1% | O=C(CC1CCCCC1)N1CCC2(CC1)NC(=O)N(c1cccc(F)c1)N2
1% | O=C(NCc1ccc2c(c1)CCCO2)c1ccc(C2CCNC2)cc1 (stereo unspecified)
1% | O=C(NCc1noc(Cc2cccs2)n1)C1COc2ccccc2C1 (stereo unspecified)
6%[70.6 µM] | COc1ccc(CNC(=O)CC[C@@H]2CNC(=O)[C@@H]3C[C@H](NC(=O)NC(C)C)CN23)cc1
-10% | O=C(Cc1ccc2c(c1)OCCCO2)NC1CCCc2c1[nH]c1ccccc21 (stereo unspecified)
-1% | COCC[C@]1(O)CCN(C(=O)c2cc(-n3cccn3)ccc2Cl)C[C@H]1C
-6% | CCn1ccc(C(=O)N2CCC(N3C[C@H](O)C[C@H]3C(=O)NC3CCCCC3)CC2)n1
3%[70.6 µM] | CC1=C[C@@H](CNC(=O)NC2CCCCC2)[C@H](C(C)C)C[C@H]1Cc1nc2ccc(C)cc2[nH]1
2% | COC[C@@H]1CN(C(=O)c2cn3ccccc3n2)C[C@H]1c1nc(C)no1
-26%[70.6 µM] | CS(=O)(=O)c1ccc(O[C@H]2COCCN(c3nc4ccccc4s3)C2)cc1
8% | CC1=NOC(C(=O)N2CCOc3c(O)cc(-c4nc(C)cnc4C)cc3C2)C1 (stereo unspecified)
-22%[70.6 µM] | Cc1ccc(-c2noc([C@@H]3C[C@H](NS(=O)(=O)Cc4ccccc4)CN3C)n2)cc1
2% | COc1cccc(CN2CCCC(c3nc(C(C)C)no3)CCNC(=O)CC2)c1 (stereo unspecified)
-11% | COc1ccc(C2Cn3nnc(-c4nc(-c5cccc(C)c5)no4)c3CO2)cc1 (stereo unspecified)
0% | O=C(NC1CCN(C(=O)N2CC3CC(C2)[C@H]2CCCC(=O)N2C3)CC1)C1CCC1 (stereo partly specified)
0%[70.6 µM] | Cc1onc(-c2cnn(C)c2NCCc2ccccc2)c1C(=O)N1CCC(F)(F)CC1
3% | Cc1n[nH]c(C)c1-c1nc2c([nH]1)CNCC2
3% | CCOc1ncccc1C(=O)NC(C)c1cnc(-c2ccncc2)nc1C (stereo unspecified)
-20% | O=C(Nc1ccc2c(N3CCCCC3)ncnc2c1)c1cc(F)cc(F)c1
1% | C=CCN1CC(C(=O)NCc2cccnc2Oc2ccc(C)nc2)CC1=O (stereo unspecified)
2%[70.6 µM] | O=C(O)C[C@@H]1CCN(C(=O)c2ccccc2)C[C@@H]1CC1=NCCc2cc(F)ccc21
1%[70.6 µM] | Cn1cc(CN2CCNc3cc(Nc4ccccc4)ncc3C2)cn1
3% | CCN(CC)C(=O)CCc1nc(C2CCCN2C(=O)c2ccccc2)no1 (stereo unspecified)
9% | Cc1cc(C)cc(NC(=O)Cn2c(=O)c(-c3noc(C)n3)c3n(c2=O)CCCCC3)c1
6% | CNC(=O)c1cc[nH]c1C1CCCN(C(=O)c2ccc(Cn3cncn3)o2)C1 (stereo unspecified)

Entries listed above printed as active in NPR1 antag.
NPR1 antag | mol
2.8µM* | COc1ccc(C(=O)N2CCC(Cc3nc(-c4ccc(F)cc4)no3)CC2)c(OC)n1

(further entries)
NPR1 antag | mol
-15% | O=C(Nc1cccc(-c2ccc(F)cc2)c1)C1CCCN(C(=O)c2cccnc2)C1 (stereo unspecified)
-5% | COCc1nc(C2CCCN(C(=O)c3ccccc3OC)C2)no1 (stereo unspecified)
-2% | COc1ccc(-c2cc(N3CCC(NC(=O)c4ccc5nc[nH]c5c4)CC3)n[nH]2)cc1
-1% | Cc1nc([C@@H]2CN(C(=O)c3noc(C)c3Cn3cccn3)C[C@H]2C(N)=O)n[nH]1
0%[70.6 µM] | CC1=C[C@@H](CNC(=O)C2CC2)[C@H](C(C)C)C[C@H]1CC(=O)N1CCOCC1
4% | Cc1ccoc1C(=O)N1C[C@@H](COc2ccccc2)[C@H](C(N)=O)C1
-27% | O=C(NCC1CCN(c2cc(-c3ccc(F)cc3)[nH]n2)CC1)c1cc(C2CC2)[nH]n1
-15%[70.6 µM] | O=C1CO[C@H]2CCN(Cc3ccccc3)CC[C@@H]2N1c1ccccc1
0% | CCc1ccc(N2CC(c3noc(-c4sccc4C)n3)CC2=O)cc1 (stereo unspecified)
0% | CCc1noc(-c2ccn3c(CNC(=O)Cc4cccc(OC)c4)nnc3c2)n1
0% | O=[S+]1([O-])NC2(CCN(Cc3cccnc3)CC2)CNc2ccccc21
1% | COCCCn1c(C)cnc1C1CCN(S(=O)(=O)c2ccccc2)C1 (stereo unspecified)
-5% | Cc1ccc(S(=O)(=O)NC[C@H]2O[C@@H](CC(=O)NCCN3CCOCC3)[C@H](O)[C@@H]2O)cc1
-1% | O=C([C@@H]1C[C@H](Oc2cccnc2)CN1S(=O)(=O)Cc1ccccc1)N1CCOCC1
8%[70.6 µM] | Cn1cnc2ccc(Nc3cccc(F)c3)nc2c1=O
4%[70.6 µM] | COc1ccc(NC(=O)c2nc(C(O)c3ccccc3)oc2C)cn1 (stereo unspecified)
3% | Cc1ccc(C(=O)NC2CCN(C(=O)N3CC4CC(C3)[C@H]3CCCC(=O)N3C4)CC2)cc1 (stereo partly specified)
2%[70.6 µM] | CCc1cn(C[C@H](NC(=O)C(C)(C)C)C(=O)O)c(=O)[nH]c1=O
-7% | CCN1c2cc(C(=O)Nc3cccc(OC)c3)ccc2C(=O)N2CCCCCC21 (stereo unspecified)
1% | COc1ccc(-c2ccc3c(c2)C(=O)N2CC[C@H](NC(=O)COCC(=O)O)[C@H]2C(=O)N3)c(OC)c1
5% | COC(=O)c1ccc(C(=O)N2CCC3(CCCN(CC4CCCCC4)C3)C2)cc1 (stereo unspecified)
-1% | O=C1NC[C@@H](CCC(=O)N2CCc3ccccc32)N2C[C@@H](NS(=O)(=O)c3ccc(F)cc3)C[C@@H]12
6% | COc1cccc(CNC(=O)[C@@H]2C[C@@H](O)CN2C2CCN(C(=O)c3ccc(OC)nc3OC)CC2)c1
3%[70.6 µM] | CC(=O)N1CCC(N[C@@H]2CO[C@H](CNS(C)(=O)=O)[C@H]2O)CC1
5% | Cc1cccc(CNC(=O)NCC2CCN(Cc3ccncc3)C2)c1 (stereo unspecified)
0% | COc1cc(CN2CCCC3(C2)CN(C)C(=O)O3)ccc1OCC(N)=O (stereo unspecified)
? | CC(C)c1nncn1C1CCN(S(=O)(=O)c2ccc(F)c(Cl)c2)CC1
18% | O=C(Cc1ccccc1)N1CCC2(CC1)COc1ccccc1NC2=O
2%[70.6 µM] | c1ccc(Nc2cc3c(cn2)CN(Cc2ncc[nH]2)CCN3)cc1
-7% | CN(C)C[C@@H]1CN(c2ncccn2)C[C@H]1NC(=O)NCc1ccco1
-2% | COc1ccc(-c2ccnc(N[C@H]3CO[C@H]4[C@@H]3OC[C@@H]4NC(=O)c3ccc(C)cc3)n2)cc1
-9% | O=C([C@@H]1C[C@H](F)CN1S(=O)(=O)c1ccccc1)N1CCc2ccccc2C1
3% | COc1ccc(Cl)cc1NC(=O)CC1CCCCN(C)C1=O (stereo unspecified)
-9% | CCCN(CC1CCOC1)C(=O)Nc1cccc(Cl)c1C (stereo unspecified)
4% | O=C(Nc1ccc2n(c1=O)C[C@H]1C[C@@H]2CN(C(=O)c2ccc(-c3ccccc3)cc2)C1)c1ccco1
-12% | Cc1cnc(C(=O)N2CCCC2c2nc(C3CCOCC3)no2)cn1 (stereo unspecified)
-17% | O=C(CCC1CCCN(S(=O)(=O)c2ccccc2F)C1)NCc1cccs1 (stereo unspecified)
2% | COCCCNC(=O)CCN(CCCOC)C(=O)c1cc(C)oc1C
0%[70.6 µM] | CC(=O)N1CCC(N2CCN3C(=O)N(c4ccccc4)C[C@H]3C2)CC1
? | c1ccc(OCC2CN(Cc3ccc4[nH]ccc4c3)CC23CN(c2ccccc2)C3)cc1 (stereo unspecified)
-12% | CCCNC(=O)N1C[C@@H]2CCCN3CCC[C@@H]([C@H]23)[C@H]1CCCC(=O)NCC1CC1
0% | Cc1noc(C)c1CC(=O)N1CCC(CC(=O)N(C)Cc2ccccc2)C1 (stereo unspecified)
4% | Cc1cc(C[C@@H]2COC[C@@H]2NC(=O)Cn2nc(C)n(-c3ccccc3)c2=O)on1
-11% | OCC1CN(c2ncccn2)CC12CCN(Cc1cccc3[nH]ccc13)CC2 (stereo unspecified)
-30%[70.6 µM] | CN1C(=O)CO[C@H](c2ccc(NC(=O)c3ccc(-c4ccccc4)cc3)cc2)[C@H]1CO
-4% | COCCc1noc(-c2ccccc2OC2CN(C(=O)Cc3c[nH]c4ccccc34)C2)n1
-14% | c1cncc(CN2CCC(Oc3nccnc3N3CCc4ccccc43)C2)c1 (stereo unspecified)
-10% | Cn1cnc(S(=O)(=O)N2CCCC(C(=O)NCCCN3CCCCCC3)CCNC(=O)CC2)c1 (stereo unspecified)
-2% | Cc1ccsc1-c1nc(C2CC(=O)N(C3CCCCC3)C2)no1 (stereo unspecified)
1% | Cc1cc(C(=O)N2C[C@@H](CN3CCOCC3)[C@@H](CO)C2)cs1

More results
NPR1 antag | mol
16%[70.6 µM] | COc1ccc(-c2nc(C(=O)N3CCOCC3)n3ccccc23)cc1
-3% | COC1CN(c2ccc(C)cc2)C12CCN(C(=O)COc1ccc(F)cc1)CC2 (stereo unspecified)
5% | CCn1cnnc1-c1nn(C)c2c1CN(C(=O)CC(C)C)CC2
4% | CC(C)(C)c1ccc(-c2cc(C[C@H]3CNCC[C@H]3CC(=O)N3CCC(Cc4ccccc4)CC3)no2)cc1
-2% | COc1cccc(NC(=O)NC[C@@H]2C=C(C)[C@H](CC(=O)N3CCOCC3)C[C@H]2C(C)C)c1
2% | COC(=O)[C@@H]1Cc2ncn(Cc3ccc(OC)cc3)c2CN1S(=O)(=O)c1ccc(OC)cc1
